# Screens deposited in PubChem by several laboratories.
# Mtb betalactam: beta-lactam sensitization of Mtb H37Rv | 330,000 compounds, 0.27% hits | M. tuberculosis H37Rv growth with meropenem, percent inhibition; hits of this screen are not shown here | AID 434955 | inhibition, % at 25 µM;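 active = about 74% or more and at least 40 points above the plate without the antibiotic, then above 30% in a dose series; inconclusive = first-round hits that could not be retested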;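 note: growth measured after seven days incubation then overnight dye step; 0% = bacteria only wells and 100% = bacteria with antibiotic; twin plates without the antibiotic show which effects depend on it; some results filed as inactive read as strong as hits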
# RecA intein inh: blocks M. tuberculosis RecA intein splicing; cell-free RecA intein splicing, fluorescence; P9WHJ3; inhibition, %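 (about 9 µM by stock and volumes)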; 290,000 compounds, 0.75% hits; in the data active = inhibition above about 30%; inconclusive = no clear call, values can overlap the other calls;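 note: 0% = vehicle wells and 100% = reference inhibitor control wells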
# Target sequence (P9WHJ3 whole entry, looked up): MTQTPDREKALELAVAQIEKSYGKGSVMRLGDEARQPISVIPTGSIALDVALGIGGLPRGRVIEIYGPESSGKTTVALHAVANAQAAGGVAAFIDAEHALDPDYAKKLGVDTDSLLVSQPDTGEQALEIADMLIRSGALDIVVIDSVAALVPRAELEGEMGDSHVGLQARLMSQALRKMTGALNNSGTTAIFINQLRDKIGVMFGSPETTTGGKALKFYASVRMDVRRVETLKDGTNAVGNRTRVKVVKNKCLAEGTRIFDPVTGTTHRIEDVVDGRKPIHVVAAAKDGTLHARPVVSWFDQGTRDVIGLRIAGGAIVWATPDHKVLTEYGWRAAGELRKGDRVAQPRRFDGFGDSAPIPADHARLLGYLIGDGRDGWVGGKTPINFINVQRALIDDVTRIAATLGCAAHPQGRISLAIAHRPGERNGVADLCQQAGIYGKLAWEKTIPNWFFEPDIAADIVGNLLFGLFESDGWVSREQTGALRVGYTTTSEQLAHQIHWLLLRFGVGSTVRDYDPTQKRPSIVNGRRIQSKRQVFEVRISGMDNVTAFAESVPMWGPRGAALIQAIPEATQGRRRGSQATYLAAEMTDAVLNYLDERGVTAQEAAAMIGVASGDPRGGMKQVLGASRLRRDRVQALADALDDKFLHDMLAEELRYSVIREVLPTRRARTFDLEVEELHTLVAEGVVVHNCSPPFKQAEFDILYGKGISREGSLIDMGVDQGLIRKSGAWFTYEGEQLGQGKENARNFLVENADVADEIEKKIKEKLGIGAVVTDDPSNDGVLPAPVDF
# Arbovirus anti: blocks arbovirus infection; arbovirus infection cell-based antiviral screen; inhibition, % at 10 µM; 200,000 compounds, 0.37% hits;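 active = inhibition from about 30%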;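 note: bluetongue infection of BSR cells; cell survival read as ATP light after 72 h; 0% = infected wells without compound and 100% = uninfected wells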
# YopH PTP inh: YopH (Yersinia) phosphatase inhibition | inhibition, %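 (about 10 µM by stock and volumes)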 | 140,000 compounds, 0.16% hits | AID 898 | fluorescence Ex485/Em525;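 active = inhibition of 50% or more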;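 note: controls were vehicle for no effect and minimum signal wells for full effect; inactives centre near -20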
# Mtb H37Rv: M. tuberculosis H37Rv growth inhibitors, H37Rv strain (AID 1626); M. tuberculosis H37Rv growth inhibition; higher % means a stronger effect; 220,000 compounds, 0.95% hits; inhibition, % at 10 µM; hits with a dose series show IC50 in µM;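 active = confirmed in a dose series; inconclusive = inhibition above 80% but not taken into the dose series; inactive = below 80% or under 30% at every dose of the series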;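 note: bacteria incubated seven days before Alamar blue readout; 0% = bacteria only wells and 100% = bacteria with antibiotic wells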
# Arbovirus anti repeat: further read-out of Arbovirus anti, marked with its call; inhibition, %; measured here: 10K subset replicate screen; many hits read low in the repeat;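 first of two repeat runs on a subset; 0% = infected and 100% = uninfected wells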
# Active calls of the source: *; ? = inconclusive; · = no result given.
# The opening 6 compounds as a preview:
SMILES,Mtb betalactam,RecA intein inh,Arbovirus anti,YopH PTP inh,Mtb H37Rv,others
CCSc1nc(=S)n(CC)c(C)c1C(C)=O,-6,3.2,11,-22,-2%,
CCCCCOC(=O)C1=C(C)N(C)C(=O)NC1c1cc(Br)c(O)c(OC)c1 (stereo unspecified),-12,4.3,12,-14,1%,
CCOC1(c2ccccc2)CC1C(=O)N/N=C/c1cccc([N+](=O)[O-])c1 (stereo unspecified),2,1.4,·,·,0%,
Cc1cc(-n2c(C)cc(C(=O)CSc3nnc4sc5ccccc5n34)c2C)no1,12,-1.9,-4,-51,-6%,
CCn1nnc(NC(=O)Cc2ccc(Cl)cc2)n1,6,0.0,0,·,0%,
CN1C(=O)SC(Nc2ccccc2C(=O)O)C1=O (stereo unspecified),?,-1.6,4,-24,-6%,

# All compounds of this part, from the first entry:
SMILES,Mtb betalactam,RecA intein inh,Arbovirus anti,YopH PTP inh,Mtb H37Rv,others
CCSc1nc(=S)n(CC)c(C)c1C(C)=O,-6,3.2,11,-22,-2%,
CCCCCOC(=O)C1=C(C)N(C)C(=O)NC1c1cc(Br)c(O)c(OC)c1 (stereo unspecified),-12,4.3,12,-14,1%,
CCOC1(c2ccccc2)CC1C(=O)N/N=C/c1cccc([N+](=O)[O-])c1 (stereo unspecified),2,1.4,·,·,0%,
Cc1cc(-n2c(C)cc(C(=O)CSc3nnc4sc5ccccc5n34)c2C)no1,12,-1.9,-4,-51,-6%,
CCn1nnc(NC(=O)Cc2ccc(Cl)cc2)n1,6,0.0,0,·,0%,
CN1C(=O)SC(Nc2ccccc2C(=O)O)C1=O (stereo unspecified),?,-1.6,4,-24,-6%,
COC(=O)c1c(NC(C)=O)sc(Cc2ccccc2)c1C,-2,-3.2,-30,-18,-9%,
O=C(Nc1nc2ccc([N+](=O)[O-])cc2s1)c1ccc(S(=O)(=O)N2CCCc3ccccc32)cc1,-11,-2.5,-19,·,-1%,
COc1ccc(S(=O)(=O)N2CCCCC2)cc1NC(=O)c1ccco1,3,-4.4,·,·,·,
O=C(Nc1ccc(Br)cc1)c1ccc(N2C(=O)C3CC=CCC3C2=O)cc1 (stereo unspecified),-4,2.4,-8,-12,-4%,
C/C(N)=C(/C#N)C(=O)CSc1nc2scc(-c3ccc(F)cc3)c2c(=O)n1C,1,·,11,·,8%,
CSc1ncc(CN2CCCC(C(=O)Nc3ccc(-c4ccco4)cc3)C2)cn1 (stereo unspecified),1,3.4,·,·,·,
COc1ccc2oc(C(=O)NN3C(C)CCCC3C)c(C)c2c1 (stereo unspecified),-16,-0.7,3,·,5%,
S=c1[nH]nc(COc2ccccc2)n1-c1ccccc1,-6,0.0,-4,·,4%,
O=C(c1ccc2c3c(cccc13)CC2)C1CCCN(C(=O)c2ccc(=O)[nH]c2)C1 (stereo unspecified),7,19,6,·,-3%,

# Fetched by compound from above:
SMILES,Mtb betalactam,RecA intein inh,Arbovirus anti,YopH PTP inh,Mtb H37Rv,others
COc1ccc2oc(C(=O)NN3C(C)CCCC3C)c(C)c2c1 (stereo unspecified),-16,-0.7,3,·,5%,
Cc1cc(-n2c(C)cc(C(=O)CSc3nnc4sc5ccccc5n34)c2C)no1,12,-1.9,-4,-51,-6%,

# (listing goes on)
SMILES,Mtb betalactam,RecA intein inh,Arbovirus anti,YopH PTP inh,Mtb H37Rv,others
CC(=O)c1ccc(N2CCN(C(=S)NCc3ccco3)CC2)cc1,-1,-1.1,-1,·,3%,
COc1ccc(NS(=O)(=O)c2ccc3c(c2)N(C(C)=O)CCO3)cc1,-7,4.6,·,·,·,
Cc1cc(C(F)(F)F)nc(SCC(=O)Nc2cc(C)on2)n1,?,-1.5,-2,-6,-3%,
CC1CCN(C(C(=O)NC2CCCCC2)c2cc3c(cc2[N+](=O)[O-])OCO3)CC1 (stereo unspecified),4,0.5,-1,-18,5%,
Cc1cc(Cl)nc(Cl)c1C(=O)N1CCOCC1,11,-1.8,-6,·,-2%,
O=C(CSc1ncn[nH]1)Nc1ccc(Cl)c(Cl)c1,99,·,6,6,80%,
COc1cc(C(=O)NC(C)CCc2ccccc2)cc(OC)c1OC (stereo unspecified),-2,1.2,·,·,·,
CCN(C(=O)COc1ccc(C)nc1[N+](=O)[O-])C1CCS(=O)(=O)C1 (stereo unspecified),-3,-1.9,-5,-29,1%,
Cc1cc(Oc2ccccc2)nc(-c2ccccc2)n1,22,6.1,0,12,6%,
NS(=O)(=O)c1ccc(NCc2ccccc2OCc2ccccc2F)cc1,7,-1.3,-14,-38,7%,
CCOc1cc(S(=O)(=O)N2CCN=C2Cc2ccccc2)ccc1F,3,-0.8,·,·,·,
Cc1ccccc1C(=O)N1CCN(c2ccc([N+](=O)[O-])c(NCc3cccnc3)c2)CC1,0,4.8,-4,-2,5%,
O=C(COc1coc(CN2CCN(c3ccccc3F)CC2)cc1=O)NC1CCCCC1,2,-0.2,·,·,·,
COC(=O)c1ccc(NC(=O)c2ccccc2CC[N+](=O)[O-])cc1,8,-0.6,-6,·,·,
Cc1ccccc1NC(=O)c1cnc(Nc2nc3ccccc3s2)nc1C,·,·,-8,-27,0%,
CCCCOc1ccc(/C=C/C(=O)OCC(=O)NC2CCS(=O)(=O)C2)cc1OCC (stereo unspecified),32,-2.0,·,·,·,
O=[N+]([O-])c1cccc(C(=S)N2CCCC2)c1,0,3.4,4,·,-5%,
Cc1ccc(S(=O)(=O)Nc2cc(C)cn(Cc3ccccc3)c2=O)cc1,11,2.5,·,·,·,
O=C(NNC1CC(=O)N(c2ccc(Br)cc2)C1=O)c1ccccn1 (stereo unspecified),98,-8.3,0,·,-3%,
COC(=O)c1c(C(=O)OC)c(-c2ccccc2)n2c1CS(=O)(=O)C2,-9,-1.7,-2,-35,-5%,
CCCOC(=O)C(=O)NNc1ccccc1,93,-5.0,-24,·,?,
CC(C)C(OC(=O)CN1C(=O)COc2ccccc21)C(=O)NC1CCCCC1 (stereo unspecified),-5,-2.1,·,·,·,
CSCCC(NS(=O)(=O)c1ccccc1F)C(=O)NC(C)c1ccccc1 (stereo unspecified),-3,1.6,-7,·,-3%,
COc1cccc(NS(=O)(=O)c2ccc(OC)c(OC)c2)c1,3,3.8,3,-37,1%,
Cc1c(NC(=O)c2cnn3c(C(F)(F)F)cc(-c4ccco4)nc23)c(=O)n(-c2ccccc2)n1C,-6,-3.3,-8,-34,-2%,
COc1cccc(OC)c1C(=O)Nc1cccc(-c2ccc3nncn3n2)c1,-7,-1.2,15,·,-6%,
Cc1cc(NC(=O)CSc2nnc(C3CC3)n2N)no1,-7,1.1,-5,-47,-8%,
COc1ccccc1/C=N/Nc1nc(C)cc(C)n1,3,-5.4,·,·,12%,
c1ccc2cc(-c3csnn3)ccc2c1,-1,-1.4,-4,-38,6%,
CC(=O)Nc1ccc(NC(=O)CN(C)S(=O)(=O)c2ccc3ccccc3c2)cc1,0,-0.4,·,·,·,
CCN1C(=O)C(=C/C=C/c2ccco2)C(=O)N(CC)C1=S,-1,18,0,-18,-3%,
COc1cc(NS(=O)(=O)c2cc3c(cc2C)NC(=O)CO3)cc(OC)c1,-3,2.8,·,·,·,
Cc1ccc([N+](=O)[O-])cc1NC(=S)NC(=O)c1cccnc1,0,4.0,0,·,3%,
CCOc1ccc(CC(=O)N/N=C/c2cccnc2)cc1OCC,-9,0.2,·,·,·,
CC1CN(C(=O)CS(=O)(=O)Cc2ccccc2)CC(C)O1 (stereo unspecified),-1,-2.5,·,·,·,
CCN(CC)CCn1c(=N)n(CC(O)COc2cccc(C)c2)c2ccccc21 (stereo unspecified),21,-1.1,-1,·,1%,
COC(=O)c1ccc2c(c1)sc(=NC(=O)CCS(=O)(=O)c1ccccc1)n2C,8,-2.9,·,·,·,
Cc1cc(C)n(CC(=O)Nc2ccc([N+](=O)[O-])cc2)n1,4,0.4,-2,·,-4%,
O=C(CCNS(=O)(=O)c1cccc2nsnc12)NCc1ccccc1,-14,-0.1,·,·,·,
CC(COc1cccc2ccccc12)CN1CCN(C)CC1 (stereo unspecified),41,1.4,-24,-30,5%,
CCOC(=O)/C(C#N)=C1/C=CN(C)C=N1,2,-1.8,0,-7,-4%,
Cc1ccc(NC(=O)CCNS(=O)(=O)c2ccc3c(c2)c(=O)n(C)c(=O)n3C)cc1C,2,-3.6,0,·,-9%,
CCOc1cnc(-c2ccc(Cl)cc2)o1,-3,1.9,0,-31,10%,
O=C(NCc1ccccc1Cl)C1CCCN1C(=O)NC1CCCCC1 (stereo unspecified),-9,1.1,·,·,·,
COc1ccc(OC)c(NC(=O)C2CCN(S(=O)(=O)c3ccc4c(c3)OCCO4)CC2)c1,-2,-1.1,·,·,·,
O=C(c1ccco1)N1CCN(Cc2cc(=O)c(OCc3ccc([N+](=O)[O-])cc3)co2)CC1,-1,0.2,·,·,·,
N#Cc1ccccc1Sc1ccccc1C(=O)Nc1ccc(Br)cc1,-3,16,-3,-35,·,
Cc1ccccc1CSc1ncc(C#N)c(N)n1,1,-1.2,-3,-56,·,
O=C(N/C(=C\c1cn(-c2ccccc2)nc1-c1ccc(Cl)cc1)C(=O)N1CCOCC1)c1ccccc1,8,0.5,-9,-33,-2%,
COc1ccc(N2C(=O)CC(N(Cc3ccco3)C(=O)CCC(=O)O)C2=O)cc1 (stereo unspecified),0,1.7,4,·,-2%,
COc1cccc(OC)c1C(=O)Nc1ccc([N+](=O)[O-])cn1,-8,4.0,2,-33,1%,
COC(=O)CSc1nc(N)c(C#N)c(-c2ccco2)c1C#N,99,-1.7,-10,-25,?,
O=[N+]([O-])c1ccc(OCCO)c(P(=O)(c2ccccc2)c2ccccc2)c1,-8,-1.8,·,·,-1%,
COCCN1C(=O)c2oc3cc(C)c(C)cc3c(=O)c2C1c1ccc(O)cc1 (stereo unspecified),?,17,·,-27,4%,
CCCCn1c(N)c(N(CCOC)C(=O)c2cccc(S(=O)(=O)N(CC)c3ccccc3)c2)c(=O)[nH]c1=O,-5,-1.5,·,·,·,
CCCCCCN(C(=O)CCCCCN1C(=O)NC(c2ccc(Cl)cc2)C(C(=O)OCc2ccccc2)=C1C)C(C(=O)NCCCC)c1ccc(OCC(=O)OC)c(C(=O)OC)c1 (stereo unspecified),·,·,-2,-6,-1%,
COC(=O)c1ccc(NCC(=O)c2ccccc2)cc1,79,2.1,-8,-12,?,Arbovirus anti repeat=-2
CS(=O)(=O)N1CCc2cc(-c3csc(NCC4CCCO4)n3)ccc21 (stereo unspecified),3,-0.9,1,-27,8%,
Cc1ccc(NC(=O)NC2CCCCC2)cc1Cl,?,·,2,11,6µM*,
Brc1cccc(CNCCc2ccc3c(c2)OCO3)c1,7,1.0,·,·,·,
# Other records follow.
SMILES,Mtb betalactam,RecA intein inh,Arbovirus anti,YopH PTP inh,Mtb H37Rv,others
COc1ccc(Cl)cc1NC(=O)CSc1nc2sccc2c(=O)[nH]1,-2,-0.8,17,·,66%,
COC(=O)c1c(NC(=O)C(=O)NCC2CCCO2)sc2c1CC(C)(C)OC2 (stereo unspecified),8,0.7,·,·,·,
CC(C)C(=O)NC(NC(=O)C(C)C)c1ccc([N+](=O)[O-])cc1,-1,-2.3,6,-13,-4%,
O=C(CNCCCO)Nc1cc(C(F)(F)F)cc(NC(=O)CNCCCO)c1Cl,-10,-4.1,5,-7,-14%,
O=C(NC(=S)Nc1cccc([N+](=O)[O-])c1)c1ccccc1,3,1.8,·,·,8%,
COc1ccc(C(=O)N(C(C)C)C(C)C)c(OC)c1,-9,0.3,1,-15,4%,
O=C(/C=C/c1cccc(Oc2ccccc2)c1)N1CCOCC1,6,-2.0,-5,·,8%,
CCc1cc2c(NC(Cc3ccccc3)C(=O)O)nc(C)nc2s1 (stereo unspecified),-8,1.8,·,·,·,
O=C(O)C(Cc1ccccc1)N1CCS(=O)(=O)CC1 (stereo unspecified),-3,·,2,·,2%,
CC/C(=N/Nc1cccc(Cl)c1)c1cnnc(SC)n1,2,-2.5,-11,-40,-5%,
Cc1cc(C(=O)Nc2cc(C(F)(F)F)ccc2N2CCOCC2)no1,7,1.1,·,·,·,
CC(=O)NC1(c2cccc(F)c2)CCN(C(=O)Nc2ccc(C#N)cc2)CC1,-3,-1.6,-5,-19,-11%,
O=C(COc1ccc(F)cc1)Nc1cc(Cl)ccc1-n1cncn1,1,7.2,·,·,·,
COc1ccc(Cl)cc1NC(=O)C(C)Sc1nncn1C (stereo unspecified),-13,0.0,-4,16,-2%,
COCCCNc1nc2nonc2nc1N1CCN2CCCC2C1 (stereo unspecified),-9,-1.5,·,·,2%,
Cc1cccc(N2CCN(S(=O)(=O)c3ccc4c(c3)CCC(=O)N4)CC2C)c1 (stereo unspecified),-1,-1.9,7,12,0%,
COc1ccc2cc(C(=O)Nc3ccc(F)cc3)sc(=O)c2c1OC,-8,0.1,-17,-13,-7%,
CCN(CC)C(=O)Cn1cc(C(=O)C(=O)Nc2ccc3c(c2)OCCO3)c2ccccc21,3,2.3,·,·,·,

# An excerpt, so the mix of outcomes need not match the whole.
